HCMV inh – human cytomegalovirus inhibition. HFF cells, HCMV-luciferase reporter, 72 h; active compounds read low. activity change, negative = inhibition, % at 57.5 µM. actives 4.5% (n = 410,000); in the data active means activity change below about -60%; inconclusive means no clear call, values can overlap the other calls; inactive means above about -39%
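After 16 h attachment at 37C, HFF cells received test compound and HCMV-luciferase (1 PFU/cell); reporter luminescence read 72 h later, data normalized against buffer-only and known inhibitor Salinomycin.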
Giardia FBPA inh – blocks Giardia fructose-bisphosphate aldolase activity | purified Giardia FBPA | Potency, µM (highest dose often 59.6 µM), for inactives: at the top dose activity, negative = inhibition, usual class: inhibitors | actives 0.71% (n = 290,000); further: potency means the concentration at half of the fitted maximal effect; nearly all actives have a fitted effect of over 55% in size
Target sequence (A8B2U2 whole entry, looked up): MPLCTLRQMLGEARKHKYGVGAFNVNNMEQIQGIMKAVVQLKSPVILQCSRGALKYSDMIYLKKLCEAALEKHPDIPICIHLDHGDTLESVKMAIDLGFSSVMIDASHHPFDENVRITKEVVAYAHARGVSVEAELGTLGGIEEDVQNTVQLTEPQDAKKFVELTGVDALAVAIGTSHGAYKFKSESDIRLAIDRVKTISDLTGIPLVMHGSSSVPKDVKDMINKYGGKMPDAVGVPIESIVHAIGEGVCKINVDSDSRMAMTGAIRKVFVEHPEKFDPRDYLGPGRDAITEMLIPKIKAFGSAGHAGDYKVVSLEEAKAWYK
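40 nM FBPA preincubated 10 min at RT with compound (up to 57.5 uM final), then substrate plus GAPDH/TPI/NAD/arsenate coupling and diaphorase/resazurin added. Fluorescence read after 20 min at RT, 525/598 nm.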
AMA1 RON2 block – disrupts binding of P. falciparum AMA1 to RON2; Potency, µM (top dose mostly 58.2 µM), for inactives: at the top dose activity change, negative = inhibition, most hits filed as inhibitors; actives 0.2% (n = 360,000); AlphaScreen AMA1-biotinylated RON2 peptide binding;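 further: potency means the concentration at half of the fitted maximal effect; 0% = vehicle wells and -100% = peptide control; nearly all actives have a fitted effect of over 45% in size; some results filed as inactive show a strong effect at the top dose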
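AMA1 (3D7) with his tag at 25 nM final met compounds first, then biotinylated RON2 peptide at 25 nM; detection used donor plus acceptor beads, 10 µg/mL apiece, read by AlphaScreen after 30 min at room temperature.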
AmpC detergent – blocks E. coli AmpC beta-lactamase in detergent assay | P00811 | AmpC hydrolysis of nitrocefin, absorbance 480 nm, 0.01% Triton | Potency, µM (series often up to 114 µM), for inactives: at the highest dose activity change, negative = inhibition, hits mostly inhibitors | actives 0.041% (n = 370,000) | AID 485294;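 further: potency means the concentration at half of the fitted maximal effect; 0% = no-compound wells and -100% = no-enzyme wells; nearly all actives have a fitted effect of over 25% in size; some results filed as inactive show a strong effect at the top dose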
Target sequence (P00811 whole entry, looked up): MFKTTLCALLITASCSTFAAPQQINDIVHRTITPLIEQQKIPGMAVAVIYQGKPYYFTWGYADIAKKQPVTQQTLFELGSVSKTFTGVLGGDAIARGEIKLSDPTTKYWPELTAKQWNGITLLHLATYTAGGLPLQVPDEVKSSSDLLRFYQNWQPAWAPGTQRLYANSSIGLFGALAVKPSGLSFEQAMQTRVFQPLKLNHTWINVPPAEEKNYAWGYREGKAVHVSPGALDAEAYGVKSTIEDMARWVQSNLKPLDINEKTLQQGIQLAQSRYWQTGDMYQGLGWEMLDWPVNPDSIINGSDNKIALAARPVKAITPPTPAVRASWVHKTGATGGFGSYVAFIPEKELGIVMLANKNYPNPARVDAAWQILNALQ
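20 mM phosphate pH 7.0 + 0.01% (detergent screen) or 0.0001% Triton X-100; 5.3 nM AmpC reagent; cpd preinc 15 min RT; nitrocefin (800 uM stock) to start; A480 q20 s × 4 min; Activity was normalised to no-enzyme and no-compound control wells.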
AmpC no deterg – blocks E. coli AmpC beta-lactamase in detergent-free assay; AmpC nitrocefin hydrolysis, absorbance 480 nm, 0.0001% Triton; P00811; AID 485341; actives 0.52% (n = 330,000); Potency, µM (titrated, usually from 57.1 µM), for inactives: at the highest dose activity change, negative = inhibition, hits mostly inhibitors;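 further: potency means the concentration at half of the fitted maximal effect; plate controls were no compound for no effect and no enzyme for full effect; nearly all actives have a fitted effect of over 20% in size; some results filed as inactive show a strong effect at the top dose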
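20 mM phosphate pH 7.0 + 0.01% (detergent screen) or 0.0001% Triton X-100; 5.3 nM AmpC reagent; cpd preinc 15 min RT; nitrocefin (800 uM stock) to start; A480 q20 s × 4 min; Activity was normalised to no-enzyme and no-compound control wells.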
* = called active by the depositor; ? = inconclusive; nt = no result given; & = joins results of further samples; [ ] = remark or other dose. Unless noted, the call rests on the fitted dose curve; in most records, active means well fitted curve in the direction sought with a large enough effect; inconclusive means small, poorly fitted or top-dose-only effect, or another doubt; inactive means no such curve, though single readings can be large; an effect the other way counts as inactive or inconclusive. Unless noted, on the % scale 0 is the no-effect control and ±100 the full control effect. Some of the compounds tested. The share of hits here may be higher or lower than overall.

| Structure | AMA1 RON2 block | HCMV inh | AmpC detergent | AmpC no deterg | Giardia FBPA inh |
| --- | --- | --- | --- | --- | --- |
| O=C(O)COc1ccc(/C=C/c2nc3ccc([N+](=O)[O-])cc3s2)cc1 | 4% | 0 | 2% | -15% | 1% |
| O=C(CSc1nc(-c2cccs2)cc(C(F)(F)F)n1)NCCCn1ccnc1 | -9% | ? | -7% | 6% | -5% |
| CC(C)Sc1nc(O)c(Cc2ccccc2)c(=O)[nH]1 | 4% | 20 | 2% | -18% | 7% |
| Cc1ccc(-c2csc3ncn(CC(=O)OC(C)C)c(=O)c23)cc1 | -3% | -16 | ? | 38% | 9% |
| COc1ccccc1CN1C[C@@H]2C[C@@H](c3ccc(C)c(C)c3)N3CCC[C@@]23C1=O | -6% | -37 | -7% | 135%[activator] | 23% |
| COc1ccc(NC(=O)CN(C)C(=O)c2ccc(S(=O)(=O)Nc3ccccc3F)cc2)cc1 | 14% | 5 | -8% | -28% | nt |
| CC(=O)CC(c1ccccc1)C1C(=O)Oc2ccccc2C1=O (stereo unspecified) | nt | nt | nt | nt | 25% |
| Cc1ccc(C)c(N2N=C(C(=O)NCCN3C(=O)S/C(=C\c4cccnc4)C3=O)CCC2=O)c1 | 10% | -16 | ? | 58% | nt |
| CCOc1ccc(S(=O)(=O)Nc2ccc(C(=O)N3CCC3)cc2)cc1 | -12% | -31 | ? | -28% | nt |
| CC1C(c2ccccc2)N(C)C(c2ccccc2)C(C)C1(O)C#Cc1ccccc1 (stereo unspecified) | -9% | -20 | -1% | -20% | -18% |
| Cc1ccc(S(=O)(=O)CCC(=O)Nc2cccc(S(=O)(=O)N3CCCCCC3)c2)cc1 | -3%[11.6 µM] | -9 | 0% | -12% | nt |
| O=C(NC1CCCCC1)N1CCN(c2ccccc2Cl)CC1 | 28% | 0 | ? | -8% | 3% |
| COc1ccc(C(=O)OCC(=O)NC(C)(C)C)cc1[N+](=O)[O-] | 9% | 7 | 0% | -30% | 0% |
| CC(=O)c1sc(NC(=O)C2CCN(C(=O)c3ccc(F)cc3)CC2)nc1-c1ccccc1 | -13% | -22 | -8% | 163%[activator] | nt |
| CC(/C=C/c1ccc2c(c1)OCO2)=N/NC(=O)COc1ccc(C)cc1 | 0% | -33 | -9% | -27% | -2% |
| CC(C)OCCCn1c(=S)[nH]c2ccc(N3CCOCC3)cc2c1=O | 57%[activator] | -22 | -7% | 10% | ? |
| O=C(CSc1n[nH]c(-c2ccccc2O)n1)N1CCOCC1 | 57%[activator] | -17 | 4% | -4% | ? |
| FC(F)(F)c1cc(-c2ccccc2)nc(N2CCOCC2)n1 | 18% | ? | -4% | -20% | 2% |
| Cc1ccccc1NC(=O)CCC(=O)N/N=C/c1cccnc1 | 11% | -5 | -2% | 0% | -3% |
| O=C(O)C(Cc1cc(Cl)ccc1Cl)Sc1nc2ccccc2[nH]1 (stereo unspecified) | 1% | 0 | 0% | 1% | 5% |
| Cc1cc(=O)[nH]c(/N=C(\N)Nc2ccc(Oc3ccccc3)cc2)n1 | -6% | -19 | -9% | -27% | 2% |
| CC1C(=O)N2CCCc3cc(S(=O)(=O)NCc4ccccc4Cl)cc1c32 (stereo unspecified) | -11% | -35 | ? | -14% | nt |
| CCOc1ccc(Cl)cc1/C=N/O | 2% | 12 | -10% | -23% | -23% |
| CCOC(=O)N1CCN(C(=O)C2CCN(S(=O)(=O)N3CCC4(CC3)OCCO4)CC2)CC1 | 11% | 0 | 3% | 22% | nt |
| Cc1ccc(-c2cc(C(=O)N3N=C(C(F)F)CC3(O)C(F)F)c3ccccc3n2)cc1C (stereo unspecified) | 38%[activator] | -89* | -3% | -39% | -5% |
| COc1ccc(Cl)cc1NC(=O)c1cc(S(=O)(=O)N2CCCC2)cn1C | 13% | 18 | -13% | 37% | -2% |
| NCCOc1ccc(C2CCCCC2)cc1 | -6% | 7 | -11% | 123%[activator] | 7% |
| COC(=O)c1ccc(CNC(=O)CSc2nc3sc(C)c(C)c3c(=O)n2C)o1 | 5% | 5 | -4% | -3% | 0% |
| COC(=O)c1[nH]c2ccc(C)cc2c1NC(=O)CN1CCN(Cc2ccccc2)CC1 | -8% | -10 | 8% | 69%[activator] | -1% |
| CC(NC(=O)COC(=O)c1ccccc1SCC(=O)N1CCCC1)c1ccccc1 (stereo unspecified) | 8% | -12 | ? | -3% | nt |
| NC(=O)CC(NC(=O)Cc1ccc(Br)cc1)c1ccc(NCCc2ccc(Cl)cc2)c([N+](=O)[O-])c1 (stereo unspecified) | -23% | -18 | -5% | -15% | 2% |
| O=C1N(c2ccc3c(c2)OCCO3)C(c2ccccc2)C1(F)F (stereo unspecified) | -25% | ? | -2% | -35% | 0% |
| CC(C)CN(C(=O)COC(=O)c1cc2ccccc2oc1=O)C1CCS(=O)(=O)C1 (stereo unspecified) | nt | nt | -13% | -4% | 1% |
| CCCCCCCC[n+]1c(C)n(-c2ccccc2)c2ccc(NC(C)=O)cc21 | 3% | -77* | ? | 22% | -4% |
| O=C(Cn1cccc1)NCc1cccs1 | -1% | 4 | -12% | -13% | 3% |
| Cc1noc(C(=O)Nc2cccc(O)c2)c1Cl | -2% | 0 | 5% | -12% | 1% |
| O=C(Cn1cncn1)NCc1ccccc1Br | 0% | 33 | -10% | -23% | 3% |
| O=C1C2C3C=CC(CC3)C2C(=O)N1c1cccc(C(F)(F)F)c1 (stereo unspecified) | 5% | 9 | -2% | -14% | 9% |
| Cn1nc(C(=O)NNC(=O)c2ccc(Cl)cc2)ccc1=O | -2% | -24 | 4% | -10% | nt |
| COc1cc(OC)c(OC)cc1CN(C)C(c1ccccc1)c1nnnn1-c1ccccc1C (stereo unspecified) | ? | -24 | -1% | 130%[activator] | -18% |
| CCC1CCCCN1C(=O)Cn1nc([N+](=O)[O-])c(Cl)c1C (stereo unspecified) | 13% | -7 | -6% | -10% | 8% |
| OC(CCN1CCCCC1)(c1ccccc1)C1C[C@@H]2C=C[C@H]1C2 (stereo partly specified) | -6% | -1 | 6% | -4% | nt |
| Cc1cc(C)nc(NS(=O)(=O)c2ccc(N3C(=O)C4C5C=CC(C5)C4C3=O)cc2)n1 (stereo unspecified) | 9% | -13 | -14% | -22% | -2% |
| COCCNC(=O)[C@H]1N2C(=O)c3ccccc3C2SC1(C)C (stereo partly specified) | 11% | 62 | -8% | 2% | -4% |
| Nc1ccc(Sc2ccccc2CC(=O)O)cc1 | nt | nt | ? | -23% | 7% |
| Cc1cc(C(=O)COC(=O)c2ccc(O)cc2)c(C)n1Cc1ccco1 | -9% | 80 | -11% | -51% | 5% |
| CCN=C1S/C(=C\c2ccc(N3CCOCC3)cc2C)C(=O)N1CC | -27% | -35 | -12% | -3% | 1% |
| COc1ccc(OC)c(S(=O)(=O)NC(C)CCc2ccccc2)c1 (stereo unspecified) | 2% | 3 | -12% | 49% | 6% |

For reference, some entries already given:
| Structure | AMA1 RON2 block | HCMV inh | AmpC detergent | AmpC no deterg | Giardia FBPA inh |
| --- | --- | --- | --- | --- | --- |
| O=C(Cn1cccc1)NCc1cccs1 | -1% | 4 | -12% | -13% | 3% |
| Cc1noc(C(=O)Nc2cccc(O)c2)c1Cl | -2% | 0 | 5% | -12% | 1% |
| O=C(Cn1cncn1)NCc1ccccc1Br | 0% | 33 | -10% | -23% | 3% |

Continuation.
| Structure | AMA1 RON2 block | HCMV inh | AmpC detergent | AmpC no deterg | Giardia FBPA inh |
| --- | --- | --- | --- | --- | --- |
| C=CCOc1ccc(C2NC(=S)NC(C)=C2C(=O)c2ccccc2)cc1OC (stereo unspecified) | -9% | 16 | -12% | -34% | 2% |
| CC(=O)NCCOc1nc(N2CCCCC2)nc(N2CCCCC2)n1 | 1% | ? | -3% | 140%[activator] | 5% |
| O=C(O)COc1ccc(/C=N/Nc2nc(Nc3ccccc3)nc(N3CCCCC3)n2)cc1 | -3% | ? | 3% | -50% | 13% |
| CCOc1cc(C2C(C(=O)OC(C)C)=C(C)N=C3SCCC(=O)N32)ccc1OC(C)=O (stereo unspecified) | 3% | -13 | 0% | 3% | -4% |
| O=C1OC(/C=C/c2ccccc2)=NC/1=C/C=C/c1ccccc1 | -2% | -22 | ? | -41% | 8% |
| CC(=O)Nc1ccc(S(=O)(=O)NCCN2CCOCC2)cc1 | 13% | 46 | ? | 0% | 2% |
| COc1ccc(C2NC3=C(CCC3)C3(C#N)C(OC)(OC)N=C(N)C23C#N)cc1 (stereo unspecified) | -13% | nt | ? | -26% | ? |
| Cc1cccc(NC(=O)c2cc(-c3ccc(C)c(C)c3O)n[nH]2)c1 | 101%[activator] | 27 | 3% | -33% | 7% |
| COc1ccc(OCC(=O)NNC(=O)c2ccccn2)cc1 | 56%[activator] | 83 | -5% | -5% | 16µM* |
| CCN(C(=O)CSc1nnc(Cc2cccc3ccccc23)n1N)C1CCS(=O)(=O)C1 (stereo unspecified) | -2% | -9 | -8% | 48% | -3% |
| CC(C)CC(=O)NC1(C(F)(F)F)C(=O)N(CC(C)C)C2=C1C(=O)CC(C)(C)C2 (stereo unspecified) | 12%[11.6 µM] | 7 | -12% | 38% | 4% |
| CN1CCCCc2c1nc1ccccc1c2N (tested in a mixture with another compound) | 0% | 44 | 0% | -24% | 4% |
| Cc1c(C2C(C#N)=C(N)N(c3cccc([N+](=O)[O-])c3)C3=C2C(=O)CCC3)cnn1C (stereo unspecified) | nt | 4 | -1% | -17% | -5% |
| COCCn1c(SCC(=O)c2ccc(C)cc2)nc2cc(C(=O)NC3CCCC3)ccc2c1=O | nt | 0 | 4% | nt | nt |
| COc1ccc(/C=C2\N=C(SC)SC2=O)cc1OC | 18% | 28 | -4% | -14% | 5% |
| CC(C)(C)C1CCC2(CC1)C(C#N)=C(SCC(=O)Nc1ccccc1)NC(=O)C2C#N (stereo unspecified) | -1% | 28 | 2% | -26% | -7% |
| CCN(CC(=O)Nc1ccc2c(c1)OCO2)S(=O)(=O)c1ccccc1 | 2% | 69 | 3% | -6% | 9% |
| CCOc1cccc2sc(N(CCCN(C)C)C(=O)c3ccc(S(=O)(=O)N(CC)Cc4ccccc4)cc3)nc12 | -26% | ? | -7% | 215%[activator] | -20% |
| Cc1ccc(Cn2c(SCC(=O)NCC3CCCO3)nc3c(sc4ccccc43)c2=O)cc1 (stereo unspecified) | 6% | 12 | -12% | -22% | 3% |
| CC(=O)[C@H]1CC[C@H]2[C@@H]3CC[C@H]4C[C@H](O)CC[C@]4(C)[C@H]3C(=O)C[C@]12C | 8% | 46 | -2% | 47% | 10%&3% |
| CCSc1ncccc1-c1nc2ccccc2[nH]1 | 0% | 23 | -10% | -37% | -6% |
| CS(=O)(=O)Nc1nc2n(n1)C(c1ccccc1)CC(c1ccccc1)N2 (stereo unspecified) | 13% | -36 | -8% | -4% | ? |
| O=C(CCSCCc1ccncc1)NCCCN1CCOCC1 | 2% | 8 | -2% | -9% | -14% |
| COc1ccc(/C(C)=N/NC(=O)c2ccncc2)cc1 | -1% | -10 | -18% | -5% | -1% |
| CCN(CC)S(=O)(=O)c1cc(NS(=O)(=O)c2cccc(Cl)c2)ccc1C | 8% | 20 | -5% | -14% | -1% |
| CS(=O)(=O)n1nc(-c2ccccc2)nc1N | 15% | 46 | 2% | -5% | 5% |
| COc1ccc(Cl)cc1NC(=O)C1CCCN(c2cc(C)nc3ncnn23)C1 (stereo unspecified) | 2% | -31 | -9% | 2% | 3% |
| CC(C)c1ccc2oc(-c3ccc(Cl)c(NC(=O)c4cccs4)c3)nc2c1 | nt | -18 | -3% | nt | nt |
| Fc1ccc(N2CCN(Cc3ccccn3)CC2)cc1 | -11% | -20 | -8% | -2%[11.4 µM] | ? |
